Screening results from PubChem BioAssay.
Ecoli growth: E. coli growth inhibition, primary screen, OD600; Escherichia coli growth, 23 h; stronger effect = lower value; OD600 absorbance (no concentration beside the values); 0.21% of 330,000 active; AID 1053175, 2014;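 active = OD600 absorbance below the run mean of sample wells minus 3.6 SD, in any replicate, cut at about 0.56 in these data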;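 note: stock transfer was 300 nL into about 60 µL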
* marks the source's active call; other numbers are inactive results; & = joins results of further samples.

`O=C(C=Cc1ccccc1Cl)c1cccnc1` gave Ecoli growth 0.69.
For COc1cc(OC)cc(C(=O)NC(C(=O)Nc2nc(-c3ccc(F)c(F)c3)cs2)C(C)C)c1 (centres undefined) the results were Ecoli growth 0.75.
COCCN1C(=O)NC(c2cccc(C(F)(F)F)c2)C(C(=O)OC)=C1C (centres undefined) was read as Ecoli growth 0.69.
For CC1CN(C(C)CO)C(=O)c2cccc(NC(=O)C3CC3)c2OC1CN(C)Cc1ccc(Cl)c(Cl)c1 (centres undefined) the results were Ecoli growth 0.69.
ClCCCc1cn(CC2CCC(C3CCC(Cn4cc(CCCCl)nn4)O3)O2)nn1 (centres undefined) was read as Ecoli growth 0.71.
For Cc1ccc(C(O)=C2C(=O)C(=O)N(CC(C)O)C2c2ccc(N(C)C)cc2)cc1 (centres undefined) the results were Ecoli growth 0.71.
For COC(=O)CN1C(=O)C2C(C=Cc3ccccc3)N3C(=O)CN(CC4CC4)C(=O)[C@@]3(Cc3ccccc3)C2C1=O (some centres undefined) the results were Ecoli growth 0.69.
Screening Cc1cc(C=C2C(=N)N3N=C(C(C)C)SC3=NC2=O)c(C)n1-c1ccccc1 returned Ecoli growth 0.69.
O=C(O)Cn1cc(C=C2SC(=O)N(CC(=O)N3CCCCCC3)C2=O)c2ccccc21 was read as Ecoli growth 0.67.
`CCCC(C#Cc1ccsc1)=C1c2ccccc2C(=O)N1c1ccccc1` gave Ecoli growth 0.71.
Screening CC1CN(C(C)CO)C(=O)c2cc(NC(=O)NC3CCCCC3)ccc2OC1CN(C)C(=O)Nc1ccccc1 (centres undefined) returned Ecoli growth 0.66.
For CCOC(=O)c1ccc(NC=CC(=O)C(C)(C)C)cc1 the results were Ecoli growth 0.72.
`CC(=O)OCC(=O)[C@@]1(O)CCC2C3CCC4=CC(=O)C=C[C@]4(C)[C@@]3(Cl)C(Cl)C[C@@]21C` (some centres undefined) gave Ecoli growth 0.7.
For Cc1c(C(C)CC(C)O)oc(=O)c2c1Oc1c(C)c(C(C)CC(C)O)oc(=O)c1C2 (centres undefined) the results were Ecoli growth 0.66.
Screening Cc1cccc2nc(-c3ccccc3)nc(NC(CO)c3ccccc3)c12 (centres undefined) returned Ecoli growth 0.7.
Screening C#CCNC(=O)C1=CC(c2ccccc2)CC(OCc2ccc(CO)cc2)O1 (centres undefined) returned Ecoli growth 0.71.
CN(C)CCCNC(=O)C=Cc1ccc2c(c1)OCO2 was read as Ecoli growth 0.65.
`CC=C(C)C(=O)OC1Cc2c(ccc3ccc(=O)oc23)OC1(C)C` (centres undefined) gave Ecoli growth 0.7.
Screening C=CCCC(Cc1ccc(F)cc1)C(=O)OCC(NC(=O)C(CC=C)CC(=O)NCCO)c1ccccc1 (centres undefined) returned Ecoli growth 0.74.
Screening Cn1c(C(C#N)=C(O)CN2CCN(Cc3ccccc3)CC2)nc2ccccc21 returned Ecoli growth 0.66.
Screening NC1=NCC(Cc2ccc(O)cc2)N1CCc1cccc2ccccc12 (centres undefined) returned Ecoli growth 0.68&0.65.
Cc1cccc(NC(=O)c2nc[nH]c2C(=O)NC(Cc2ccccc2)C(=O)OC(C)(C)C)c1 (centres undefined) was read as Ecoli growth 0.72.
For CCOC1OC(C(=O)O)=CC(C2CC2)C1CCCO (centres undefined) the results were Ecoli growth 0.69.
Screening Cc1cccc(NC(=O)c2nc[nH]c2C(=O)NC(CC(C)C)C(=O)OCc2ccccc2)c1 (centres undefined) returned Ecoli growth 0.7.
`COc1ccc(C2CC(=O)C=C(c3cc(F)ccc3OC)C2)cc1` (centres undefined) gave Ecoli growth 0.7.
For CC[C@@]12C(=O)N(c3ccccc3)C(=O)N1C(c1cccc(C)c1)C1C(=O)N(Cc3ccccc3)C(=O)C12 (some centres undefined) the results were Ecoli growth 0.7.
`COc1ccc(C2C=CCN(S(=O)(=O)C=Cc3ccccc3)C(Cc3ccccc3)C(=O)N2Cc2ccc(F)cc2)cc1` (centres undefined) gave Ecoli growth 0.73.
`CC1CN(C(C)CO)C(=O)c2cccc(NC(=O)Nc3ccc4c(c3)OCO4)c2OC1CN(C)C(=O)Nc1ccccc1` (centres undefined) gave Ecoli growth 0.68.
For CCN1C(=O)C2C(c3ccc(C)cc3)N3C(=O)N(c4ccc(C(F)(F)F)cc4)C(=O)[C@@]3(CC)C2C1=O (some centres undefined) the results were Ecoli growth 0.7.
Screening CCOC(=O)C1C2COc3ccc(OC)cc3C2N2C(=O)CN(Cc3ccc(Cl)cc3)C(=O)[C@@]12C (some centres undefined) returned Ecoli growth 0.69.

Reprinted at random: two records from the list.
For CCN1C(=O)C2C(c3ccc(C)cc3)N3C(=O)N(c4ccc(C(F)(F)F)cc4)C(=O)[C@@]3(CC)C2C1=O (some centres undefined) the results were Ecoli growth 0.7.
Screening Cc1cccc2nc(-c3ccccc3)nc(NC(CO)c3ccccc3)c12 (centres undefined) returned Ecoli growth 0.7.

Next section:
For CC(=O)Nc1ccc(SCCN2CCC(C)CCC2=O)cc1 (centres undefined) the results were Ecoli growth 0.69.
`COc1ccc(C2CC(=O)C=C(c3ccc(Cl)c(C(F)(F)F)c3)C2)cc1` (centres undefined) gave Ecoli growth 0.71.
For CC(C)NC(=O)N(C)CC1Oc2ccc(NC(=O)CCN3CCOCC3)cc2CC(=O)N(C(C)CO)CC1C (centres undefined) the results were Ecoli growth 0.68.
`COC(=O)C1=C(C(=O)OC)C2N(Cc3ccccc3)c3ccccc3[C@@]23CC(C(=O)OC)N(C(=O)c2cccs2)C3=N1` (some centres undefined) gave Ecoli growth 0.66.
For C#CCOCCOCCOCCNc1nc(N2CCN(C(=O)C(CCC(=O)O)n3cc(C(N)Cc4ccc(O)cc4)nn3)CC2)nc(N2CCN(C(=O)C(Cc3ccc(O)cc3)n3cc(C(N)CC(C)C)nn3)CC2)n1 (centres undefined) the results were Ecoli growth 0.71.
COC(=O)CN1C(=O)C2C(C=Cc3ccccc3)N3C(=O)CN(CCO)C(=O)[C@@]3(Cc3ccccc3)C2C1=O (some centres undefined) was read as Ecoli growth 0.71.
Screening CC1CCN(C(=O)c2nc[nH]c2C(=O)OC(C)c2ccccc2)CC1 (centres undefined) returned Ecoli growth 0.7.
CCOC(=O)C1C2COc3ccc(Br)cc3C2N2C(=O)CN(Cc3ccc(OC)cc3)C(=O)[C@@]12C (some centres undefined) was read as Ecoli growth 0.71.
Screening CC=CC=CC(=O)N1CC2(CC(c3cccc(NC(=O)C=CC)c3)=NO2)CC1C(N)=O (centres undefined) returned Ecoli growth 0.68.
`CCOC(=O)c1ccc(NC(=O)c2nc[nH]c2C(=O)NC(Cc2ccccc2)C(=O)OC(C)(C)C)cc1` (centres undefined) gave Ecoli growth 0.7.
Screening CN1CC2C3C(=O)N(Cc4ccccc4)C(=O)C3[C@](Cc3ccccc3)(C1=O)N2C(=O)c1ccccc1 (some centres undefined) returned Ecoli growth 0.67.
For COc1ccc(C2CC(=O)C=C(c3cc(Cl)cc(Cl)c3)C2)cc1 (centres undefined) the results were Ecoli growth 0.72.
Screening CCOC(=O)CN1C(=O)NC(CCc2ccccc2)C(C(=O)OC)=C1C (centres undefined) returned Ecoli growth 0.69.
Screening O=S1(=O)CCOCC(Cc2ccccc2)N1Cc1ccc(F)cc1 (centres undefined) returned Ecoli growth 0.66.
For O=c1c(OC2OC(CO)C(O)C(O)C2O)c(-c2ccc(O)cc2)oc2cc(O)cc(O)c12 (centres undefined) the results were Ecoli growth 0.65&0.65.

Sorted by count of non-hydrogen atoms (high to low): 3 of the compounds above.
COC(=O)CN1C(=O)C2C(C=Cc3ccccc3)N3C(=O)CN(CCO)C(=O)[C@@]3(Cc3ccccc3)C2C1=O (some centres undefined) was read as Ecoli growth 0.71.
Screening O=S1(=O)CCOCC(Cc2ccccc2)N1Cc1ccc(F)cc1 (centres undefined) returned Ecoli growth 0.66.
For COc1ccc(C2CC(=O)C=C(c3cc(Cl)cc(Cl)c3)C2)cc1 (centres undefined) the results were Ecoli growth 0.72.

Returning to the listing, repeating the three entries before the break.
Screening CCOC(=O)CN1C(=O)NC(CCc2ccccc2)C(C(=O)OC)=C1C (centres undefined) returned Ecoli growth 0.69.
Screening O=S1(=O)CCOCC(Cc2ccccc2)N1Cc1ccc(F)cc1 (centres undefined) returned Ecoli growth 0.66.
For O=c1c(OC2OC(CO)C(O)C(O)C2O)c(-c2ccc(O)cc2)oc2cc(O)cc(O)c12 (centres undefined) the results were Ecoli growth 0.65&0.65.
For CCOc1ccccc1N1CCN(CC=Cc2ccc(N(C)C)cc2)CC1 the results were Ecoli growth 0.68.
`CC(O)C1CNC(=S)N1CCc1cccc(F)c1` (centres undefined) gave Ecoli growth 0.72.
O=C1C=C(c2ccc(F)c(Cl)c2)CC(c2ccc(F)cc2)C1 (centres undefined) was read as Ecoli growth 0.71.
`CC(C)(C)OC(=O)NCCCCC(NC(=O)c1[nH]cnc1C(=O)Nc1ccccc1)C(=O)OC(C)(C)C` (centres undefined) gave Ecoli growth 0.68.
COc1ccc(NC(=O)NC=Cc2ccco2)cc1 was read as Ecoli growth 0.7.
`COc1ccc2cc1Oc1ccc(cc1)CC1c3c(cc4c(c3Oc3cc5c(cc3OC)CCN(C)C5C2)OCO4)CCN1C` (centres undefined) gave Ecoli growth 0.71.
For COc1ccc(CN2CCC(=O)N(C(CO)Cc3ccccc3)CC2)cc1OC (centres undefined) the results were Ecoli growth 0.68.
COc1ccc(CN2CC(Cc3ccccc3)C(CC(=O)Nc3ccccc3)C2=O)cc1 (centres undefined) was read as Ecoli growth 0.67.
Screening CC(NC(=O)c1nc[nH]c1C(=O)N1CCN(c2ccccc2)CC1)C(=O)OC(C)(C)C (centres undefined) returned Ecoli growth 0.68.
CC1CN(C(C)CO)C(=O)c2cc(NC(=O)Nc3ccc(F)cc3)ccc2OC1CN(C)Cc1ccccc1 (centres undefined) was read as Ecoli growth 0.66.
COC(=O)[C@@]12CCCCN1C(c1ccc(SC3CCCCC3)cc1)C1C(=O)N(C)C(=O)C12 (some centres undefined) was read as Ecoli growth 0.72&0.68.
Screening CCc1nnc(NC(=O)C(NC(=O)c2cccc(S(=O)(=O)N3CCOCC3)c2)C(C)C)s1 (centres undefined) returned Ecoli growth 0.65.
CC(C)(C)OC(=O)CC1CC=CCC(CC(=O)NC(CO)Cc2ccccc2)C(=O)N2CCCC2COC1=O (centres undefined) was read as Ecoli growth 0.68&0.69&0.69&0.7&0.67&0.71&0.71&0.73&0.71.
COc1ccc(C=C2N=C(SC)NC2=O)cc1 was read as Ecoli growth 0.7.
For CCN1C(Nc2ccccc2)=NCC1C (centres undefined) the results were Ecoli growth 0.7.
CCNC1CC(C)S(=O)(=O)c2sc(S(N)(=O)=O)cc21 (centres undefined) was read as Ecoli growth 0.68.
CC1=C(C(=O)OCc2cc(C)on2)N2C(=O)C(NC(=O)OCc3cc(C)on3)C2SC1 (centres undefined) was read as Ecoli growth 0.64.
Screening CCOc1cc(C=C2C(=O)ON=C2C)ccc1OCc1ccccc1 returned Ecoli growth 0.66.
`COc1cc2c(cc1Cl)C(=CCCN(C)C)c1ccccc1S2` gave Ecoli growth 0.63.
For CCOC(=O)C1C2COc3ccccc3C2N2C(=O)N(c3ccc(C(F)(F)F)cc3)C(=O)[C@]12C (some centres undefined) the results were Ecoli growth 0.65&0.58.
`CCC(C)C(NC(=O)Nc1ccc(S(N)(=O)=O)cc1)C(=O)O` (centres undefined) gave Ecoli growth 0.72.
`CN(C)C=C1Oc2ccc3ccccc3c2C1=O` gave Ecoli growth 0.65.
`CC(C)(C)C1C=C(C(N)=O)OC(OCc2ccc(CO)cc2)C1` (centres undefined) gave Ecoli growth 0.7&0.68.
Screening COc1ccc(C2=CC(=O)CC(c3ccc(F)cc3)C2)cc1F (centres undefined) returned Ecoli growth 0.68.
Screening C[N+](C)(C)CCOP(=O)(O)OP(=O)([O-])OCC1OC(n2ccc(N)nc2=O)C(O)C1O (centres undefined) returned Ecoli growth 0.67.
C#CCNC(=O)C1=CC(C2CCCCC2)C(CCCO)C(OCC)O1 (centres undefined) was read as Ecoli growth 0.66&0.72.
Screening CC=CC=CC(=O)Nc1cccc(C2=NOC3(C2)CC(C(N)=O)N(C(=O)COc2ccc(Cl)cc2)C3)c1 (centres undefined) returned Ecoli growth 0.72.
CC(C)CN1CCC(=O)N(C(CO)c2ccccc2)CC1 (centres undefined) was read as Ecoli growth 0.68.
C[C@@]12C(=O)Nc3ccccc3C(=O)N1C1c3cc(Br)ccc3OCC1C2c1ccccc1 (some centres undefined) was read as Ecoli growth 0.65.
C#CCOCCOCCOCCNc1nc(N2CCN(C(=O)CCCCCCCCCCNC(=O)C(CCC(=O)O)n3cc(CCCCCN)nn3)CC2)nc(N2CCN(C(=O)CCCCCCCCCCNC(=O)C(CCC(=O)O)n3cc(CCCCCN)nn3)CC2)n1 (centres undefined) was read as Ecoli growth 0.63.

The list is partial, so the mix of outcomes need not match the whole.
